Bioassay records from PubChem.
StopGo reporter = lowers the luciferase signal of an FMDV 2A StopGo reporter; human cells with a luciferase reporter of 2A StopGo recoding; control for the full effect not named in the record; Potency, µM (series often up to 57.9 µM), without a hit: at the highest dose signal change, negative = less light; 410,000 compounds, 1.2% hits; AID 1159524; active = well fitted falling curve with a large enough effect; inconclusive = small, poorly fitted or top-dose-only effect; inactive = no such curve, though single readings can be large or run the other way; tested in HEK293T cells; also: % is scaled to controls: 0 for no effect and ±100 for the full control effect; nearly all actives have a fitted effect of over 45% in size; luciferase light after 4 h
SARS PLP yeast = inhibitors of SARS-CoV papain-like protease in yeast. S. cerevisiae expressing SARS-CoV PLpro, growth rescue; control for the full effect not named in the record. Potency, µM (titrated, usually from 32.9 µM), inactives show top-dose activity, positive = growth rescue. 330,000 compounds, 0.19% hits. AID 485353; active means well fitted rising curve with a large enough effect; inconclusive means small, poorly fitted or top-dose-only effect; inactive means no such curve, though single readings can be large or run the other way; also: 0% is about no effect; nearly all actives have a fitted effect of over 55% in size; growth read by luminescence after 48 h
Cruzain inh Det = cruzain (T. cruzi) inhibition with detergent. P25779. purified cruzain, Z-FR-AMC fluorescence, 0.01% Triton. Potency, µM, inactives show max response, negative = inhibition, hits mostly inhibitors. 200,000 compounds, 0.43% hits;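 also: plate controls were neutral wells for no effect and buffer without enzyme for full effect; nearly all actives have a fitted effect of over 40% in size; top concentration of the series not given in the record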
Target sequence (P25779 123-467 limits assumed): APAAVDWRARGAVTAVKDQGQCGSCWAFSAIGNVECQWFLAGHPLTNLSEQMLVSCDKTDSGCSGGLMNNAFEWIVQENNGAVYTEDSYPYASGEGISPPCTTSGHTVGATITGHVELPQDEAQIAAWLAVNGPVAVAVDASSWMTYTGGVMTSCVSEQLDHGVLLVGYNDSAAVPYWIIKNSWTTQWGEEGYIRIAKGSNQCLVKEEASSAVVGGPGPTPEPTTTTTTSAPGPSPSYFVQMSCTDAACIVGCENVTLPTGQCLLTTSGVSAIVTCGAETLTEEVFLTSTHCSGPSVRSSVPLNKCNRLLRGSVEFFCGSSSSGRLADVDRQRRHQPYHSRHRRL
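Detergent-containing arm of a paired screen for aggregation-based inhibition: 0.01% Triton X-100 present. Cruzain at 1.5 nM cleaved 2 uM Z-FR-AMC at pH 5.5 with 5 mM DTT; AMC fluorescence gain over 60 s measured activity.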
LASV entry inh = blocks Lassa virus binding to or entry into cells | Potency, µM (titrated, usually from 37.9 µM), for the others: top-dose activity change, negative = inhibition, actives largely listed as inhibitors | 300,000 compounds, 1.2% hits | Lassa virus pseudotype entry inhibition, cell reporter; control for the full effect not named in the record; active means well fitted inhibition curve with a large enough effect; inconclusive means small, poorly fitted or top-dose-only effect, or effect the other way; inactive means flat fitted curve, though single readings scatter; tested in HEK293 cells; also: % is scaled to controls: 0 for no effect and ±100 for the full control effect; nearly all actives have a fitted effect of over 50% in size; luciferase read-out
Marburg entry inh = inhibitors of Marburg virus binding or cell entry. Marburg virus pseudotyped entry inhibition, cell reporter; control for the full effect not named in the record; about a third of the inactives were read at about 46 µM. Potency, µM (doses to about 37.8 µM), inactives show at the highest dose activity change, negative = inhibition, actives largely listed as inhibitors. 300,000 compounds, 1.8% hits; active = well fitted inhibition curve with a large enough effect; inconclusive = small, poorly fitted or top-dose-only effect, or effect the other way; inactive = flat fitted curve, though single readings scatter; tested in HEK293 cells; about a fifth of its hits are not listed in these tables; also: % is scaled to controls: 0 for no effect and ±100 for the full control effect; luciferase read-out
Cruzain noTriton = cruzain (T. cruzi) inhibition without detergent | purified cruzain, Z-FR-AMC fluorescence, no detergent | Potency, µM, without a hit: max response, negative = inhibition, actives largely listed as inhibitors | P25779 | 200,000 compounds, 2.3% hits;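 also: plate controls were enzyme without inhibitor for no effect and buffer without enzyme for full effect; nearly all actives have a fitted effect of over 40% in size; top concentration of the series not given in the record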
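Detergent-free condition (0.00005% Triton X-100) in acetate buffer pH 5.5 with DTT. 1.5 nM enzyme and compound were pre-mixed 15 min, then 2 uM Z-FR-AMC substrate added; reaction progress from fluorescence change between first and third reads (60 s).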
NS1 inh = inhibitors of influenza NS1 protein function; S. cerevisiae slowed by influenza A NS1, growth recovery by OD600; Potency, µM (highest dose often 46.1 µM), for inactives: at the top dose activity, positive = more growth; 270,000 compounds, 0.4% hits; AID 2326; active means well fitted rising curve with a large enough effect; inconclusive means small, poorly fitted or top-dose-only effect; inactive means no such curve, though single readings can be large or run the other way; also: nearly all actives have a fitted effect of over 50% in size
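Read-out: OD600 growth recovery of NS1-expressing budding yeast. Cells grown overnight at 30C in -URA glucose medium, washed, resuspended and diluted 1:100 in 2% galactose assay medium, pH 6.0. Same strain lacking NS1 served as positive control.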
RE007 growth inh = less growth of the S. pombe RE007 Vpr strain; S. pombe RE007 Vpr strain, BacTiter-Glo ATP luminescence, 24 h; control for the full effect not named in the record; Potency, µM (series often up to 92.2 µM), inactives show at the top dose activity change, negative = less growth; 360,000 compounds, 0.21% hits; AID 651644; active = well fitted falling curve with a large enough effect; inconclusive = small, poorly fitted or top-dose-only effect; inactive = no such curve, though single readings can be large or run the other way;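 also: % is scaled to controls: 0 for no effect and ±100 for the full control effect; nearly all actives have a fitted effect of over 50% in size; the assay follows cell death caused by Vpr and the record does not say whether a fall means rescue or toxicity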
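Fission yeast strain RE007, carrying one chromosomally integrated HIV-1 vpr copy, was seeded at OD 0.01 in PMG+AL medium with 23 nL pinned compound. After 24 h at 30 °C and 99% humidity, viability was read by BacTiter-Glo luminescence.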
An asterisk follows results filed as active; ? = inconclusive; . = no result given; & = joins results of further samples; [ ] = remark or other dose. Unless noted, calls follow the shape of the dose curve; as a rule, active = well fitted curve in the direction sought with a large enough effect; inconclusive = small, poorly fitted or top-dose-only effect, or another doubt; inactive = no such curve, though single readings can be large; an effect the other way counts as inactive or inconclusive. Potency is read from the fitted curve at half-maximal effect.

Screens in order: RE007 growth inh	Marburg entry inh	LASV entry inh	NS1 inh	SARS PLP yeast	Cruzain inh Det	StopGo reporter	Cruzain noTriton
Cc1ccc(S(=O)(=O)n2c(CN3CCCC(C)C3)nc3ccccc32)cc1 (stereo not drawn)
    -8%	?	-1%	4%	-5%	2.0%	.	12%
Nc1nnc(SCC(=O)N2CCN(c3cccc(Cl)c3)CC2)n1-c1ccccc1
    3%	?	-6%	.	.	.	-12%	.
N#CC1=C(N)SC2(CCCCC2)SC1c1ccccc1 (stereo not drawn)
    1%	?	12%	-2%	7%	0.9%	38%[activator]	-1%
Cc1cccc(NC(=O)CSc2cn(CC(=O)N3CCC(C)CC3)c3ccccc23)c1C
    .	.	29%[46.1 µM]	.	.	-0.3%	-17%	-8%
COC(=O)c1cc(S(=O)(=O)N2CCOCC2)c(Cl)cc1N1CCOCC1
    2%	0%	-8%	0%	-1%	-1.2%	-13%	7%
CN(C)CCC(C(=O)c1ccccc1)c1ccncc1 (stereo not drawn)
    -4%	-1%	9%	.	.	.	-14%	.
Cc1nnc(C)n1/N=C/c1ccc2c(c1)OCCO2
    -14%	22%	5%	-5%	6%	-1.2%	18%	3%
O=C(CSc1nc2ccc(Cl)cc2[nH]1)c1ccc2c(c1)OCO2
    -11%	12%	20%	-50%	-5%	-5.0%	18%	?
Cn1cccc1C(=O)NNC(=O)c1ccccc1Br
    1%	2%	?	.	1%	.	12%	.
Cc1ccc(-n2nc(C)c3c2OC(N)=C(C#N)C3c2ccncc2)cc1 (stereo not drawn)
    -15%	16%	-15%	6%	4%	3.3%	-8%	-22%
O=C(CCN1c2ccccc2Sc2ccccc21)Oc1ccccc1
    0%	0%	7%	-9%	-4%	-7.1%	0%	-7%
C/C(N)=C(/C#N)C(=O)COC(=O)c1cc(-c2cccc(Br)c2)nc2ccccc12
    -7%	?	14%	0%	-16%	5.3%	0%	?
CN1C(=O)N(CC(=O)N2CCN(c3ncccn3)CC2)C(=O)C12CCCCC2
    -2%	4%[46.1 µM]	?	.	5%	.	-6%	.
C=CCC(NCc1ccccc1)c1ccccc1 (stereo not drawn)
    3%	?	?	0%	?	2.4%	-16%	15%
Cc1ccc(Nc2nc3c(s2)CCC3)c(C)c1
    -2%	?	-22%	9%	-27%	-12%	52%[activator]	?
O=C(NCc1ccc2c(c1)OCO2)C1CCC(CNc2c(N3CCCC3)c(=O)c2=O)CC1 (stereo not drawn)
    -9%	-2%	.	-3%	9%	-9.9%	-4%	-1%
CCn1c(SCC(=O)Nc2ccccc2)nc2ccccc2c1=O
    -7%	?	14%	-1%	1%	.	-8%	.
COc1ccc(NC(=O)C(=O)NCC(c2ccco2)N2CCc3ccccc32)cc1 (stereo not drawn)
    -17%	?	?	.	-4%	.	-3%	.
CCC(C)(C)C1CCC2(CC1)NC(=O)N(CC(=O)Nc1cc(C(F)(F)F)ccc1N1CCOCC1)C2=O (stereo not drawn)
    5%	-4%	17%	21%	.	.	-24%	.
N/C(=N\OC(=O)c1ccc2c(c1)OCO2)c1ccc([N+](=O)[O-])cc1
    2%	9%	14%	1%	0%	.	48%[activator]	.
CCC(=O)NCc1c(Cl)cccc1-n1cccc1
    15%	-5%	1%	5%	3%	5.5%	-11%	-2%
Oc1ccc(Br)cc1-c1cc(-c2ccccc2)n[nH]1
    -6%	-25%	-11%	-17%	1%	-14%	4%	-15%
COc1ccc(F)cc1C(=O)C1CCCN(C(=O)CCc2ccccn2)C1 (stereo not drawn)
    -13%	11%[46.1 µM]	-13%	0%	-1%	.	?	.
O/N=C/c1c[nH]c2ccccc12
    0%	3%	6%	-5%	8%	-2.0%	-14%	-9%
Cc1cc(C)c2c(N)c(C(=O)c3ccc(Cl)cc3Cl)sc2n1
    -5%	?	?	24%	2%	-7.5%	?	-1%
COc1ccc(CCNC(=O)c2cc(-c3cc(Cl)ccc3O)n[nH]2)cc1OC
    29%	?	-27%	10%	1%	.	?	.
CC(C)(C)CN1CCN(Cc2cccnc2)CC1CCO (stereo not drawn)
    -1%	-1%	17%	-6%	2%	.	-9%	.
O=C(NCc1ccco1)c1ccc([N+](=O)[O-])o1
    -8%	3%[46.1 µM]	-13%	2%	2%	.	-20%	.
Cc1noc(N)c1C(=O)Nc1ccccc1F
    0%	-2%	-1%	-3%	-18%	2.1%	0%	-26%
CN(C)CCNC(=O)Cn1ccc2cc(S(=O)(=O)N3CCCCCC3)ccc21
    -1%	.	2%[46.1 µM]	-4%	?	-5.1%	3%&15%	-3%
O=[N+]([O-])c1ccc(N2CCN(S(=O)(=O)c3ccccc3)CC2)cc1
    2%	3%[46.1 µM]	1%[46.1 µM]	-4%	1%	.	-15%	.
CCOC(=O)C1CCN(S(=O)(=O)c2ccc3c(c2)CCCN3C(C)=O)CC1
    -5%	-12%[46.1 µM]	-21%	-19%	5%	2.5%	?	5%
O=S(c1ccccc1)c1ccccc1
    30%	?	0%[46.1 µM]	.	.	.	-3%	.
O=c1c2ccccc2oc2nc(-c3ccco3)n(Cc3ccccc3)c(=O)c12
    -3%	-4%	0%	-15%	-2%	1.4%	33%[activator]	8%
COc1cc(C(C)=O)ccc1OCC(O)CN1CCN(c2ccc(C)cc2C)CC1 (stereo not drawn)
    -18%	-11%	-12%	-29%	4%	.	-23%	.
Clc1ccc(/C=N/Nc2nnc(Cl)c3ccccc23)cc1
    11%	0%	?	-1%	2%	-1.4%	.	25µM*
COc1ccc(C2C=C(C)Nc3nc(SC)nn32)cc1 (stereo not drawn)
    25%	-2%	8%	1%	-3%	-1.7%	0%	-2%
COc1ccc(CN2CCC(CO)(CCOc3ccccc3)CC2)c(OC)c1C
    -1%	?	?	-2%	1%	.	-27%	.
O=C(COC(=O)c1cccnc1Nc1cccc(C(F)(F)F)c1)NC1CCS(=O)(=O)C1 (stereo not drawn)
    -16%	-10%	-10%	-6%	7%	-14%	?	12%
CCOC(=O)Cc1c(C)[nH]n(-c2ccccc2)c1=O
    -8%	13%[46.1 µM]	-26%	4%	-2%	.	-4%	.

An excerpt of these results, as labelled records.
molecule: Clc1ccc(/C=N/Nc2nnc(Cl)c3ccccc23)cc1
  RE007 growth inh: 11%	Marburg entry inh: 0%	LASV entry inh: ?	NS1 inh: -1%	SARS PLP yeast: 2%	Cruzain inh Det: -1.4%	StopGo reporter: .	Cruzain noTriton: 25µM*

molecule: COc1ccc(C2C=C(C)Nc3nc(SC)nn32)cc1 (stereo not drawn)
  RE007 growth inh: 25%	Marburg entry inh: -2%	LASV entry inh: 8%	NS1 inh: 1%	SARS PLP yeast: -3%	Cruzain inh Det: -1.7%	StopGo reporter: 0%	Cruzain noTriton: -2%

molecule: COc1ccc(CN2CCC(CO)(CCOc3ccccc3)CC2)c(OC)c1C
  RE007 growth inh: -1%	Marburg entry inh: ?	LASV entry inh: ?	NS1 inh: -2%	SARS PLP yeast: 1%	Cruzain inh Det: .	StopGo reporter: -27%	Cruzain noTriton: .

molecule: O=C(COC(=O)c1cccnc1Nc1cccc(C(F)(F)F)c1)NC1CCS(=O)(=O)C1 (stereo not drawn)
  RE007 growth inh: -16%	Marburg entry inh: -10%	LASV entry inh: -10%	NS1 inh: -6%	SARS PLP yeast: 7%	Cruzain inh Det: -14%	StopGo reporter: ?	Cruzain noTriton: 12%

Other results.
Screens in order: RE007 growth inh	Marburg entry inh	LASV entry inh	NS1 inh	SARS PLP yeast	Cruzain inh Det	StopGo reporter	Cruzain noTriton
CCOC(=O)COc1nc(OC)nc(N2CCOCC2)n1
    5%[3.69 µM]	-1%	-3%	4%	-1%	1.5%	12%	-6%
CCC(=O)N1CCc2cc(S(=O)(=O)CCC(=O)Nc3ccc(OC)c(OC)c3)ccc21
    18%	5%	4%	.	0%	.	-10%	.
Cc1cccn2c(=O)c3cc(C(=O)NCCN4CCOCC4)c(=N)n(Cc4cccnc4)c3nc12
    -9%	.	.	-21%	?	.	-10%	.
O=C(NCCS(=O)(=O)N1CCN(c2ccccc2F)CC1)c1cc(=O)c2ccccc2o1
    5%	.	15%[46.1 µM]	4%	0%	-1.8%	-25%&-4%	-1%
Cc1ccc(/C=C/C(=O)OCC(=O)Nc2cccnc2Cl)o1
    -19%	-3%[46.1 µM]	28%[46.1 µM]	.	-4%	.	-3%	.
Cc1cccnc1NC1=NCC(C)S1 (stereo not drawn)
    -1%	-19%	-2%	-4%	6%	-0.5%	-19%	11%
Cc1ccc(S(=O)(=O)c2cc3ccccc3oc2=Nc2ccc3c(c2)OCCO3)cc1
    .	?	-19%	-8%	-11%	-2.6%	5%	?
CCOC(=O)Cc1csc(NC(=O)c2ccc(S(=O)(=O)N3CCCCC3)cc2)n1
    10%	-14%	-5%	-8%	-1%	-6.9%	?	-8%
Cc1ccc(Cn2nc(C)c(NC(=O)c3cc(-c4ccco4)on3)c2C)cc1
    7%	1%	?	3%	-1%	6.6%	?	-2%
COc1ccccc1C(=O)O/N=C(\N)c1ccccn1
    -24%	3.5µM*	?	-35%	-3%	.	-17%	.
O=C(NCCN1CCCC(O)C1)c1cc(COc2ccc(F)cc2Cl)on1 (stereo not drawn)
    -8%	.	.	11%	2%	.	-3%	.
COc1ccc(C(=O)N2CCC(c3nc(-c4ccc(S(=O)(=O)N5CCCC5)cc4)no3)CC2)cc1
    .	?	-24%[46.1 µM]	.	.	-2.7%	-24%	?
O=C(c1cccc(S(=O)(=O)N2CCOCC2)c1)N1CCCC1
    -7%	20%	9%	7%	5%	-2.6%	25%	-3%
COc1ccc(/C=C2/SC(=S)N(CC(=O)O)C2=O)cc1OCc1ccc(Cl)cc1
    -11%	.	.	?	-2%	.	45%[activator]	.

This is a random part of the collection; overall some 4.6% were active at least once.
